# Source: PubChem BioAssay
# PINK1 expr mod: PINK1 expression modulation. PINK1 immunofluorescence, high-content cytometry, 24 h. Potency, µM (doses to about 76.6 µM), for the others: top-dose activation (PINK1 increase), hits mostly activators. hit rate 0.2% among 410,000. AID 624263; active = well fitted activation curve with a large enough effect; inconclusive = small, poorly fitted or top-dose-only effect; inactive = flat fitted curve, though single readings scatter; cell line not stated here;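 also: potency is read from the fitted curve at half-maximal effect; % of control where 0% means no effect; nearly all actives have a fitted effect of over 65% in size; a mitochondrial uncoupler was the plate control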
#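 A stable cell line was treated with compounds at 5 concentrations for 24 hours, with CCCP as control. PINK1 levels and mitochondrial localization were measured by immunofluorescence with mitochondrial, cell and nuclear markers after fixation, read by laser-scanning cytometry.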
# CtBP-E1A blk: blocks the CtBP interaction with E1A; AlphaScreen GST-E1A/His-CtBP binding, 1536-well; hits give low values; control for the full effect not named in the record; activity change, % (concentration not given with the values); hit rate 0.49% among 340,000; in the data active means activity change below about -65%; inconclusive means about -30% to -65%; inactive means above about -30%; also: % is scaled to controls: 0 for no effect and ±100 for the full control effect
#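 GST-E1A and His-tagged CtBP (125 nM each as 5X stock) were preincubated with pin-transferred compound for 2 h at 37 °C in the dark, then glutathione donor and nickel acceptor beads were added for 1 h before AlphaScreen reading.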
# D2 potentiator: positive allosteric modulators of human D2 dopamine receptor; DiscoveRx D2 beta-arrestin cells, luminescence, 90 min; 100% = 57 uM dopamine signal; potentiation, % (test concentration not listed); hit rate 0.23% among 360,000; AID 624464; active = potentiation of 50% or more; inconclusive = 30% to 50%; inactive = 30% or less;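 also: compound concentration not given in the record; tested on top of an EC20 dose of dopamine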
#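 D2 cells co-treated with compound plus 50 nM dopamine (EC20) for 90 min at 37 deg C to detect potentiation. Beta-arrestin recruitment was read as enzyme-fragment luminescence after 1 h at ambient temperature. Full response was set by 57 uM dopamine.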
# TRPML1 agonist: agonists of human TRPML1 channel. AID 624414. hit rate 0.12% among 410,000. TRPML1-expressing cells, Ca2+ dye fluorescence, FDSS; host cell line not named in the record; reference of the full effect not given here. Q9GZU1. activation, % (no concentration beside the values); in the data active = activation above about 50%; inconclusive = about 30% to 50%; inactive = below about 30%; also: 0% is about no effect; the text of the record puts the active cut at 80%
#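 Cells: TRPML1-DL, 1X Tet inducer, ~16 h at 37 degrees C/5% CO2. Dye: ABD Ca8 no-wash + quencher, 45-90 min RT. Read: 10 s baseline, compound add, 110 s agonist phase; 54-4 EC80 (4uM final), 110 s antagonist phase.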
# Six1-Eya2 blk: blocks human Six1 binding to Eya2 | Q15475+O00167 | AlphaScreen GST-Six1/His-Eya2 binding, biochemical; hits give low values; control for the full effect not named in the record | activity change, % (test concentration not listed) | hit rate 0.56% among 360,000 | AID 651725; in the data active = activity change below about -65%; inconclusive = about -30% to -65%; inactive = above about -30%; also: % is scaled to controls: 0 for no effect and ±100 for the full control effect; compound concentration not given in the record
# Target sequence (O00167 whole entry, looked up): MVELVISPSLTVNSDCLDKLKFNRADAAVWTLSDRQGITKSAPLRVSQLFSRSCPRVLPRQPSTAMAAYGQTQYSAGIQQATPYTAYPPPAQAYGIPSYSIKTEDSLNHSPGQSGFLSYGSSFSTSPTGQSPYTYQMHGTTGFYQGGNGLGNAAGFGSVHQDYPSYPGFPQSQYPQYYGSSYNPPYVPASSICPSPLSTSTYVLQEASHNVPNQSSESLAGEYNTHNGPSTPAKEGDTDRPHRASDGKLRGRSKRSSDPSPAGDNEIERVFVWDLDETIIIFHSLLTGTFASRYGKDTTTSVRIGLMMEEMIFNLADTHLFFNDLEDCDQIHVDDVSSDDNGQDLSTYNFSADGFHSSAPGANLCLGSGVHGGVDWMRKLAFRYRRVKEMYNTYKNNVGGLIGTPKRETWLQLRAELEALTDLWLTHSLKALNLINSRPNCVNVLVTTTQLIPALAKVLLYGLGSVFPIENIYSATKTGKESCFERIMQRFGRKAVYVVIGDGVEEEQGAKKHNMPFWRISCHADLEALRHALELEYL
# Target sequence (Q15475 whole entry, looked up): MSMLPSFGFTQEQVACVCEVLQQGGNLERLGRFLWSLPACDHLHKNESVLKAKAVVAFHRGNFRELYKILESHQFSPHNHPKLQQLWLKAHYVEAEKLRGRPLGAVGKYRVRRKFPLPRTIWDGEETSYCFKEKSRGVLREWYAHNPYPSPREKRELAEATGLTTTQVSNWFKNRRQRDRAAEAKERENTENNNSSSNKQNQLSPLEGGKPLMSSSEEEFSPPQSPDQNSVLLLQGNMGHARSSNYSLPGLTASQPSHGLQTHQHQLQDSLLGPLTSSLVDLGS
#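 GST-Six1 + His-Eya2 (5X stock: 250/500 nM); Tris pH 8.0, 300 mM NaCl, 0.05% BSA, 0.02% Tween 20; GSH donor/Ni acceptor beads; 1 h 37 °C dark; AlphaScreen readout.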
# D2 agonist: human D2 receptor agonism in beta-arrestin assay; P14416; activation, % (test concentration not listed); hit rate 0.084% among 360,000; DiscoveRx PathHunter D2 beta-arrestin, luminescence, 90 min; 100% = 57 uM dopamine signal; in the data active = activation above about 40%; inconclusive = about 15% to 40%; inactive = below about 15%; also: compound concentration not given in the record; the text of the record calls up to 30% inactive
#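 DiscoveRx PathHunter D2 beta-arrestin cells (2,100/well) attached overnight, then compound-stimulated 90 min at 37 C in HBSS/10 mM HEPES/0.1% Tween-20 buffer; beta-galactosidase complementation read by luminescence after 1 h at ambient temperature. Dopamine 57 uM final (EC100) as control.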
# * = called active by the depositor; / = not tested or not shown; & = joins results of further samples; [ ] = remark or other dose.
cpd	canonical_smiles	PINK1 expr mod	CtBP-E1A blk	D2 potentiator	TRPML1 agonist	Six1-Eya2 blk	D2 agonist
1	O=C(/C=C/c1ccc(Cl)cc1)OCC(=O)c1ccc[nH]1	0.3%	/	4	0.1	7	-3.2
2	COc1ccc(OC)c(NC(=O)C2C3C=CC(C3)C2C(=O)NCc2ccccn2)c1 (configuration not stated)	-4.0%	-5	1	-1.3	-8	2.0
3	C=CCSc1nnc2c(n1)OC(c1ccccn1)N(C(C)=O)c1ccccc1-2 (configuration not stated)	3.0%	12	-7	-0.8	2	-4.5
4	O=C(CCNC(=O)c1ccc([N+](=O)[O-])cc1)NNC(=O)c1ccccc1F	-1.6%	-3	-3	0.2	11	-4.2
5	COc1ccc(-c2noc(N3CCC(C(=O)N(C)c4ccccc4C)CC3)n2)cc1	0.2%	2	-5	-0.7	-8	3.5
6	NC(=O)c1nn(CC(=O)Nc2cccc(S(=O)(=O)N3CCCCCC3)c2)c(=O)c2ccccc12	2.8%	2	-4	-0.1	-8	8.9
7	CCS(=O)(=O)Nc1ccc2c(c1)OCO2	1.0%	/	-3	2.2	-12	2.4
8	CCOc1ccccc1C(=O)OCC(=O)Nc1ncc(C(F)(F)F)cc1Cl	24%[38.3 µM]	9	-10	-0.7	3	-4.3
9	Cc1cc(C)n(C(=O)COc2ccc(Cl)cc2Cl)n1	-5.9%[38.3 µM]	7	3	1.7	7	-1.7
10	O=C(Nc1ccc(S(=O)(=O)Nc2ncccn2)cc1)c1ccc2ncsc2c1	0.3%	5	-10	-0.5	-19	-2.7
11	Nc1ccn([C@@H]2O[C@H](CNCc3cc(Cl)ccc3OCc3ccc(Cl)cc3)[C@@H](O)[C@H]2O)c(=O)n1	0.8%	17	/	/	-3	2.0
12	Cc1c(NC(=O)C(C)Oc2ccc(Br)cc2Cl)c(=O)n(-c2ccccc2)n1C (configuration not stated)	-1.1%	5	-3	-0.6	0	-4.6
13	CCCCCOc1ccc(CSCCNC(=S)Nc2ccccc2)cc1	1.1%	0	-6	0.0	-3	1.1
14	COc1ccc(NC(=O)COC(=O)C23CCC(=O)N2c2ccccc2S3)cc1 (configuration not stated)	-2.5%	-10	-4	1.4	2	0.8
15	Cc1ccc(C(C)n2cc(C(=O)NCCN3CCN(C)CC3)nn2)cc1 (configuration not stated)	-0.7%	-1	-11	0.4	5	-0.1
16	Cn1c(-c2ccccc2)c(C(=O)CCl)c2ccccc21	-1.3%	11	-9	-0.3	-3	3.6
17	O=C(NCc1ccc2c(c1)OCO2)C1CCC(CNS(=O)(=O)c2ccccc2)CC1 (configuration not stated)	4.9%	-2	-9	-1.1	-3	1.3
18	Cc1cccc(NS(=O)(=O)c2ccc3oc(=O)ccc3c2)c1C	2.0%	/	-1	/	10	-2.4
19	Cc1ccc(S(=O)(=O)CC2CSc3nnc(C)c(=O)n32)cc1 (configuration not stated)	-1.5%	6	7	2.8	3	3.4
20	Cc1cc(C)n2nc(SCC(=O)Nc3ccc(F)cc3[N+](=O)[O-])nc2n1	-0.6%	-1	28	1.0	-2	8.0
21	COc1cccc(NC(=O)COc2ccc(Br)c(C)c2)c1	2.7%	22	0	1.0	6	-2.9
22	O=C(NC(=S)Nc1ccccc1Cl)c1csnn1	-0.7%[38.3 µM]	5	-12	0.9	0	-3.8
23	CCOc1ccc(N(CC(=O)NC2CCCCC2)C(=O)CNC(=O)c2cccs2)cc1	-0.2%	-8	-8	0.1	2	-4.5
24	O=C(CNc1cccc([N+](=O)[O-])c1)NC(=O)NC1CCCCC1	2.3%	-2	-6	1.1	-6	0.0
25	CCN(CC)CCN1C(=O)C(=O)/C(=C(/O)c2c(C)[nH]c(C(=O)OC)c2C)C1c1cccc(OC)c1 (configuration not stated)	-0.1%	-12	12	0.5	3	3.8
26	CCOc1ccc(C/C(O)=C2\C(=O)CC(C)(C)CC2=NCC(=O)O)cc1OCC	-0.6%	0	4	0.5	8	-4.8
27	CCOC(=O)c1c(NC(=O)c2cccs2)sc(C)c1C	3.5%	5	-14	-0.9	0	-0.7
28	CC(C)CNC(=S)NNC(=O)c1ccccc1OC(F)F	0.5%[38.3 µM]	3	-20	0.4	5	-3.8
29	COc1ccc(Cl)cc1NC(=O)COC(=O)CCc1cc(OC)c(OC)c(OC)c1	2.0%	0	-7	4.1	6	-1.0
30	O=C(COC(=O)c1cc(=O)[nH]c2ccccc12)NC1CCCCC1	9.3%	1	-11	-0.4	1	-0.6
31	Cn1c(Cc2csc(N)n2)nnc1SCC(=O)NC1CCCCC1	0.4%	-2	4	-0.9	-19	-1.0
32	C[C@H](CO)N1C[C@H](C)[C@@H](CN(C)Cc2ccc(C(=O)O)cc2)Oc2c(NS(=O)(=O)c3ccccc3)cccc2C1=O	0.5%	4	-3	-0.4	12	-2.0
33	CCN(CC(=O)NCCCN1CCOCC1)S(=O)(=O)c1ccc(F)cc1	-1.0%	0	-1	0.9	10	2.0
34	Cc1ccc(-c2nnn(CC(=O)N(c3cccc(F)c3)C(C(=O)NC3CCCC3)c3ccco3)n2)o1 (configuration not stated)	17%[38.3 µM]	3	-7	-0.1	1	-0.9
35	COc1ccc(S(=O)(=O)N2CCC(C(=O)NCc3cccs3)CC2)cc1	-0.3%	8	-5	-0.1	0	-2.2
36	CCOC(=O)C1(C)CCCCN1C(=O)c1ccc(N(C)C)cc1 (configuration not stated)	-0.3%	4	1	-1.0	1	2.6
37	Cn1cnnc1SCC(=O)NCc1cccc(C(F)(F)F)c1	/	7	-17	1.0	4	-1.1
38	Cc1cc(C)c2nc(SC3CCOC3=O)cc(C)c2c1 (configuration not stated)	1.4%	0	-13	2.8	-3	-1.3
39	FC(F)(F)c1cccc(Sc2cc(C(F)(F)F)nc(-c3ccccn3)n2)c1	-0.5%	-3	0	1.9	4	-1.4
40	COc1cccc(S(=O)(=O)Nc2cccnc2)c1	5.3%[38.3 µM]	-7	-5	-0.7	-2	1.3
41	COC(=O)c1cnc(Nc2nc(C(N)c3ccccc3Cl)cs2)nc1C(F)(F)F (configuration not stated)	4.4%	-12	3	-0.1	-5	-1.8
42	CCOC(=O)c1c(C)[nH]c(C(=O)CN2C(=O)C(=O)N(CC(C)C)C2=O)c1C	0.9%	4	-23	-0.2	-13	-6.3
43	CNC(=O)Nc1cc(NC(=O)NC)cc(C(F)(F)F)c1	0.5%	-12	-2	-0.4	11	0.1
44	CCc1cccc(CC)c1NC(=O)c1ccccc1CCc1ccccc1	-2.2%	0	-4	0.1	9	-0.4
45	CCOC(=O)C1CCN(Cc2coc3ccc(Cl)cc3c2=O)CC1	2.7%[38.3 µM]	7	-17	0.0	5	1.6
46	CN(C)CCSc1nc(-c2ccccc2)nc2c1COC(C)(C)C2	3.1%[38.3 µM]	-15	-22	1.6	-10	-6.1
47	CCCCNC(=O)/C=C/c1ccc(S(=O)(=O)Nc2ccc(OC)cc2)cc1	-1.1%	14	3	-0.1	-4	1.2
48	COc1ccc(Cc2nc3ccc(C(=O)N4CCCN(C=O)CC4)cc3o2)cc1	-0.8%	1	-10	-0.1	3	-3.0
49	O=C1CCCCCN1C(=O)c1ccc(C(=O)N2CCCCCC2=O)cc1	-0.2%	9	6	-0.7	-7	-0.1
50	C/C(Cc1ccccc1)=N\NC(=O)CNC(=O)c1ccccc1Br	1.0%	-13	-4	-0.2	-8	-1.6

# Next section
cpd	canonical_smiles	PINK1 expr mod	CtBP-E1A blk	D2 potentiator	TRPML1 agonist	Six1-Eya2 blk	D2 agonist
51	Brc1ccc2[nH]c3c(NCc4ccccn4)ncnc3c2c1	0.1%	-15	-10	0.2	-9	1.7
52	Cc1ccc(S(=O)(=O)N(Cc2cccc(Cl)c2)C(=O)N2CCN(C)CC2)cc1	0.5%	-20	-14	0.2	9	-0.7
53	O=C(O)CCC(=O)Nc1ccc(Br)cc1C(=O)c1ccccc1Cl	-0.3%	1	-4	-0.5	5	-6.7
54	Nc1nc(N2CCOCC2)nc2ccccc12	0.9%	0	-5	-0.4	-1	-2.0
55	COc1ccc2cnn(Cc3ccccc3)c(=O)c2c1OC	1.6%	6	-4	0.6	0	0.0
56	Cc1ccc(S(=O)(=O)N(CC(=O)NC2CC3CCC2C3)c2ccccc2)cc1 (configuration not stated)	0.3%	4	-13	0.3	1	-2.3
57	CC(C)NC(=O)C(=O)NCCN1CCN(S(=O)(=O)c2ccc(Cl)cc2)CC1	6.6%[38.3 µM]	4	-4	-0.5	-1	-1.5
58	CCc1nnc(NC(=O)CSc2nc3ccccc3c(=O)n2CCCOC)s1	0.6%	0	-5	-0.1	0	-1.3
59	Cc1cccc(Cn2c(=O)oc3ccc(C)cc32)c1	2.4%	23	-4	1.7	18	2.9
60	CCN1CCCC(CO)(Cc2ccccc2)C1 (configuration not stated)	0.8%	5	-13	0.5	3	-3.8
61	O=C(NCc1ccccc1)/C(=C\c1ccc([N+](=O)[O-])cc1)NC(=O)c1ccco1	-0.5%	-4	1	0.0	-2	-3.6
62	CCOc1ccc(C(=O)Nc2c3c(nn2-c2ccc(F)cc2)CS(=O)C3)cc1 (configuration not stated)	-2.3%	8	6	3.1	2	-1.4
63	Cc1cc(C(=O)OCC(=O)Nc2nccs2)c2ccccc2n1	1.2%	-8	-7	0.5	-3	2.0
64	COc1ccc(NC(NC(=O)c2ccc(OC)cc2)C(Cl)(Cl)Cl)cc1 (configuration not stated)	3.2%	-10	-6	0.4	-5	-1.6
65	COc1cc2sc(-c3ccc(S(C)(=O)=O)cc3)c(-c3ccc4c(c3)OCO4)c2cc1OC	1.2%	11	1	0.6	8	-1.4
66	CCN(CC)CCNC(=O)CN1C(=O)COc2ccc(S(=O)(=O)N3CCOCC3)cc21	0.1%&1.1%	-12	-9	-0.4&-0.3	3	-1.7
67	Cc1cc(=O)[nH]c(SCC(=O)N2CCN(S(=O)(=O)c3ccccc3)C2)n1	-1.5%	9	2	-0.2	3	-0.3
68	Cc1cccc(CNC(=O)C2CCC(=O)N(C3CCCC3)C2)c1 (configuration not stated)	-1.2%	3	7	-0.3	3	-1.8
69	CCN(CC)C(=O)[C@H]1C[C@H](CC(=O)NCCN2CCOCC2)C(=O)N2CCc3c([nH]c4ccc(Cl)cc34)[C@]12C	-0.6%	3	/	-0.7	-1	-0.5
70	COc1cccc(-c2cc(C(=O)NC3CCCC3)c3ccccc3n2)c1	1.1%	4	-5	2.0	3	-3.7
71	Cc1cc(Br)ccc1SCC(=O)OC/C(O)=C(\C#N)c1nc2ccccc2[nH]1	13%	/	-3	-0.8	4	-2.2
72	O=C(NC1CC1(c1ccccc1)c1ccccc1)c1ccccc1 (configuration not stated)	6.6%	4	-8	4.6	0	2.0
73	CCOC(=O)c1cccc(NC(=O)CSc2nnc(COc3ccccc3C)o2)c1	/	5	-14	1.4	0	-1.0

# Fetched by compound from the list above, 2 records:
cpd	canonical_smiles	PINK1 expr mod	CtBP-E1A blk	D2 potentiator	TRPML1 agonist	Six1-Eya2 blk	D2 agonist
71	Cc1cc(Br)ccc1SCC(=O)OC/C(O)=C(\C#N)c1nc2ccccc2[nH]1	13%	/	-3	-0.8	4	-2.2
57	CC(C)NC(=O)C(=O)NCCN1CCN(S(=O)(=O)c2ccc(Cl)cc2)CC1	6.6%[38.3 µM]	4	-4	-0.5	-1	-1.5
